Compound activity as filed in PubChem.
TRPML1 ag = human mucolipin-1 channel agonism; Q9GZU1; TRPML1-expressing cells, Ca2+ dye fluorescence, FDSS; host cell line not named in the record; reference of the full effect not given here; activation, % (test concentration not listed); 410,000 compounds, 0.12% hits; AID 624414; in the data active = activation above about 50%; inconclusive = about 30% to 50%; inactive = below about 30%; also: 0% is about no effect; the text of the record puts the active cut at 80%
Target sequence (Q9GZU1 whole entry, looked up): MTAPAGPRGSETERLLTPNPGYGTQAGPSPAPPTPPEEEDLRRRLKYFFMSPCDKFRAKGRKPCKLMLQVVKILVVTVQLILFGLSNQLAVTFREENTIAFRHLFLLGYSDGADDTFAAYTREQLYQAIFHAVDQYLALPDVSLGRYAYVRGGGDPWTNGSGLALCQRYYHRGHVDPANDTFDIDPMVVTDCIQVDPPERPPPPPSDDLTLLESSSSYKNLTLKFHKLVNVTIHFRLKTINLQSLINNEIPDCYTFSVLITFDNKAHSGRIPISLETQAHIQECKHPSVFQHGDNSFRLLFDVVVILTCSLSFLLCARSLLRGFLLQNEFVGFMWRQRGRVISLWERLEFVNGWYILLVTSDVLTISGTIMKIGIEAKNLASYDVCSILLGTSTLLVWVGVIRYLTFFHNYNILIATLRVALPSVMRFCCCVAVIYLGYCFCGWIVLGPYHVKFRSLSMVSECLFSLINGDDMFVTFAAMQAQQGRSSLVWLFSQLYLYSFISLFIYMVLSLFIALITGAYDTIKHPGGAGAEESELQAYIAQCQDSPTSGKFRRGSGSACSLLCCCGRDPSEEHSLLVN
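Calcium fluorescence on an FDSS kinetic reader gave the read-out. Tet-induced TRPML1-DL cells were plated overnight, dye-loaded (Ca8 with quencher, 45-90 min, room temperature, dark), then read 110 s after compound addition, and again 110 s after 4uM final 54-4 (EC80).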
PINK1 expr mod = modulators of PINK1 expression | PINK1 immunofluorescence, high-content cytometry, 24 h | Potency, µM (titrated, usually from 76.6 µM), for the others: top-dose activation (PINK1 increase), actives largely listed as activators | 410,000 compounds, 0.2% hits; active = well fitted activation curve with a large enough effect; inconclusive = small, poorly fitted or top-dose-only effect; inactive = flat fitted curve, though single readings scatter; cell line not stated here;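 also: potency is read from the fitted curve at half-maximal effect; % of control where 0% means no effect; nearly all actives have a fitted effect of over 65% in size; a mitochondrial uncoupler was the plate control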
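Measures PINK1 amount and localization on or inside mitochondria by immunofluorescence. Stable cells get compounds at 5 concentrations for 24 hours before fixation and staining; CCCP controls included.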
* = called active by the depositor; u = inconclusive. Some of the compounds tested; the hit share may differ from the screen's.

Structure | PINK1 expr mod | TRPML1 ag
Cc1cccc(-n2c(=O)c3c(c4cc(C)ccc4n3C)n(CC(=O)N3CCCC3)c2=O)c1 | 0.1% | 2.1
CNC(=O)CCCN1C(=O)CCn2nc(-c3cn(C)c4ccccc34)cc21 | 1.7% | 4.0
COC(=O)c1cc2sccc2n1Cc1nc(-c2cccc(Br)c2)oc1C | 0.8% | -0.5
Cc1ccc(C)c(NC(=O)C(=O)NCC(c2cccnc2)N2CCN(c3ccc(F)cc3)CC2)c1 (stereo not drawn) | -0.4% | 1.6
CC(CCc1ccccc1)NC(=O)Cn1c(=O)nc(-c2ccccc2F)c2cc(Cl)ccc21 (stereo not drawn) | -1.2% | 0.6
COc1cccc(-c2nc3c(c(SCc4ccccc4Cl)n2)Cc2c(CO)cnc(C)c2O3)c1 | -2.0% | 0.8
Cc1ccccc1-n1nc(CO)c(C(=O)NCc2cccnc2)n1 | 0.1% | 4.0
COc1ccc2oc(=O)c(-c3nc4ccc(C)cc4[nH]3)cc2c1 | 4.5% | -0.2
Cc1cc(C)c(NC(=O)c2sc3nc(C)cc(C)c3c2NC(=O)c2ccccc2)c(C)c1 | 1.5% | 2.2
COCCn1c(=S)[nH]c2cc(C(=O)N3CCN(Cc4ccccc4)CC3)ccc2c1=O | 2.5% | -0.5
Cc1ccc(NC(=O)CSc2nnc(C)s2)c(C)c1 | 0.1% | -0.5
COc1ccc(-c2nc3c(=O)n(C)c(=O)nc-3n(C)n2)cc1 | 0.1% | 9.8
Cc1ccccc1CSc1nc(-c2ccccc2)nc2c1Cc1c(CO)cnc(C)c1O2 | -0.4% | 0.8
CC1CCN(C(=O)Cn2ncc3c4ccccc4n(Cc4ccc(Cl)cc4)c3c2=O)CC1 | 1.0% | 0.2
Cc1ccc(CNC(=O)Cc2csc3ccccc23)cc1 | 7.0% | 1.7
Cc1ccc(OCC(=O)OCc2cc(=O)n3ccsc3n2)cc1C | 0.0% | 0.5
Cc1nn(C)c(C)c1CCNC(=O)Nc1cccc(Cl)c1C | -0.2% | -0.8
Cc1ccc(CNC(=O)c2cc(=O)c3cc(C)c(C)cc3o2)cc1 | 1.7% | -1.0
Cc1cc(Br)cc(C)c1OCC(=O)Nc1ccc(S(=O)(=O)Nc2ncccn2)cc1 | -0.8% | 1.9
CCOC(=O)N1CCC(NC(=O)c2ccc3c(c2)N(Cc2cccc(C)c2)C(=O)c2ccccc2S3(=O)=O)CC1 | 2.4% | -0.1

2 records drawn at random from the list so far:
Structure | PINK1 expr mod | TRPML1 ag
Cc1ccc(OCC(=O)OCc2cc(=O)n3ccsc3n2)cc1C | 0.0% | 0.5
Cc1cc(Br)cc(C)c1OCC(=O)Nc1ccc(S(=O)(=O)Nc2ncccn2)cc1 | -0.8% | 1.9

(cont.)
Structure | PINK1 expr mod | TRPML1 ag
Cc1ccccc1NC(=O)Cn1c(=O)n(CCCC(=O)NCc2ccc3c(c2)OCO3)c(=O)c2ccccc21 | 1.7% | -0.6
Cc1cccc(C(=O)Nc2cc3c(cc2N2CCCCC2)n(C)c(=O)c(=O)n3C)c1 | 2.7% | 0.0
COc1ccc(S(=O)(=O)NCC(c2ccco2)S(=O)(=O)c2cccs2)cc1F (stereo not drawn) | 2.8% | 1.0
COc1cc(NC(=O)c2ccc3oc(=O)c(S(=O)(=O)c4ccccc4)cc3c2)cc(OC)c1 | -1.3% | 0.5
CCCCS(=O)CC(O)CSc1nc(-c2ccc(OC)cc2)cc(-c2ccccc2)c1C#N (stereo not drawn) | 0.5% | -0.3
CCCCC(=O)OC1=C(C(=O)c2ccccc2)N(CCC)S(=O)(=O)c2ccccc21 | 15% | 1.8
CCCN1Cc2cccc(C(=O)Nc3ccccc3C(=O)OC)c2C1=O | 4.1% | 0.7
COc1ccccc1-n1cc(-c2ccc(C)cc2)nc1S(=O)(=O)CC(=O)Nc1ccccc1C(F)(F)F | 1.3% | 0.1
CNc1nc(-c2ccccc2)c(-c2ccccc2)s1 | 3.7% | -0.8
COc1ccc(N2CCN(C(=O)C3CCCN(C(=O)c4cc5sccc5n4C)C3)CC2)cc1 (stereo not drawn) | 0.3% | -0.8
COc1ccc(N2CCN(C(=O)CSCc3nc(-c4ccccc4Cl)oc3C)CC2)cc1 | 1.0% | 2.6
Cc1ccc(C)c(NC(=O)c2cc(S(=O)(=O)N3CCN(c4cccc(Cl)c4)CC3)ccc2F)c1 | 1.1% | 0.9
Cc1ccc(C)c(N2CCN(C(=O)c3ccc(CS(=O)(=O)c4ccc(Br)cc4)o3)CC2)c1 | 2.2% | -0.2
O=c1oc2ccc3ccccc3c2cc1-c1nnc(Nc2ccccc2F)s1 | 2.3% | 0.5
COCCNC(=O)CSc1nc(-c2ccc(F)cc2)[nH]c1-c1ccc(Cl)cc1 | -0.4% | 3.4
CN(C)c1ccc(/C=C/c2sc3ccccc3[n+]2C)cc1 | 45µM* | -0.3
Cc1ccc(NC(=O)CSc2nc(-c3cccs3)nc3cc(=O)[nH]n23)cc1C | -1.0% | 0.9
CCN(CC)S(=O)(=O)c1ccc2c(c1)c(=O)c(C(=O)N1CCN(c3ccccc3OC)CC1)cn2C | -0.2% | -0.6
Cc1c(C(=O)NCCN(C)C)sc2nc3n(c(=O)c12)CCC3 | 0.0% | -0.4
CCN1CCN(CCCNC(=O)c2ccc3nc(Cc4ccc(OC)cc4)oc3c2)CC1 | 1.1% | 2.0
COc1ccc(CCC(=O)NC2CC(=O)N(c3ccc(OC)cc3)C2)cc1 (stereo not drawn) | -0.4% | 1.4
CCOc1ccc(CNC(=O)CSc2nnc(C)c3c(C)n(-c4ccc(Cl)cc4)nc23)cc1 | 0.0% | 1.0
CCOC(=O)C1CCCN(S(=O)(=O)c2ccc3[nH]c(=O)ccc3c2)C1 (stereo not drawn) | -5.7% | 1.5
CCOc1ccc(CNC(=O)c2cnc(SC)nc2C)cc1 | -0.1% | 1.3
CCOC(=O)c1c(C)c(-c2ccccc2)n(CC(=O)Nc2cc(C)ccc2OC)c1C | 1.1% | 0.8
CC1CCC(NC(=O)c2ccc(CS(=O)(=O)c3c(Cl)cccc3Cl)o2)CC1 (stereo not drawn) | 1.5% | 0.5
COc1cc2c(cc1OC)C(c1cc(OC)c(O)c(OC)c1)CC(=O)N2 (stereo not drawn) | 2.1% | -0.8
CCc1ccccc1Nc1nc2cc(Cl)c(Cl)cc2nc1-n1nc(C)cc1C | -1.4% | 1.1
COc1cccc(CN2C(=O)C3(SCC(=O)N3c3ccc(C(C)C)cc3)c3ccccc32)c1 (stereo not drawn) | -1.3% | 1.4
CC(CNC(=O)c1nnc(Cc2ccc(F)cc2)o1)c1ccccc1 (stereo not drawn) | 3.1% | -0.6
Cc1cccc(C)c1NC(=O)c1sc(-n2nc(C)c(Cc3ccccc3)c2C)nc1C | 1.8% | 0.2
CCOc1ccc(NC(=O)Cn2cc(C(=O)c3ccc(F)cc3)c(=O)c3cc4c(cc32)OCCO4)cc1 | 2.2% | -0.3
O=C(NCCCN1CCCCCC1)c1ccc2c(c1)sc1nc(-c3ccccc3)cn12 | 0.4% | 0.1
CC(=O)c1cccc(NC(=O)c2cc(C)nc3c2c(C)nn3-c2cccc(Cl)c2C)c1 | 0.7% | -0.6
Cc1ccc(N2C(=O)CSC23C(=O)N(CC(=O)NC2CCCCC2)c2ccccc23)cc1C (stereo not drawn) | -3.9% | 1.4
CC(C)(C)CC(=O)NC1CC(=O)N(c2ccc3c(c2)OCCO3)C1 (stereo not drawn) | -0.4% | -0.1
Cc1ccc(CSc2nc3ccc(NC(=O)COc4ccccc4F)cc3s2)cc1 | 3.6% | -0.9
CCCCCSc1nnc(-c2ccc(Br)cc2)o1 | 2.6% | 1.0
CCC(Sc1nc2ccncc2[nH]1)C(=O)Nc1ccc(F)cc1 (stereo not drawn) | -0.4% | 0.5
CSc1ccc(CCNC(=O)c2c(C)oc3ncn(C)c(=O)c23)cc1 | 1.0% | 0.1

PINK1 expr mod: entries above that show a hit
Structure | PINK1 expr mod
CN(C)c1ccc(/C=C/c2sc3ccccc3[n+]2C)cc1 | 45µM*

Next section:
Structure | PINK1 expr mod | TRPML1 ag
Cc1ccc(-c2cc(NC(=O)COc3c(C)cc(C)cc3C)on2)cc1 | 2.6% | -0.4
Cn1cc(S(=O)(=O)N2CCCCCC2)cc1C(=O)N1CCN(c2ccccc2F)CC1 | 0.0% | -0.2
Cc1csc2nc(COC(=O)c3ccccc3NC(=O)c3ccc(F)cc3)cc(=O)n12 | -1.4% | 2.3
Cc1ccc2nc(-c3ccc(Cl)c(NC(=O)COc4cccc(C)c4C)c3)oc2c1 | -2.1% | -0.2
COCCCNC(=O)c1ccc(-n2c(-c3ccccc3)cc3c2CCC(C)C3)cc1 (stereo not drawn) | -0.7% | 1.9
Cc1nc2nncn2c(Nc2ccccc2)c1C | 0.0% | -0.8
COc1cc(Br)c(CC(=O)NO)cc1OC | 0.3% | -0.2
Cc1ccc2nc(-c3ccc(NC(=O)COc4ccccc4)cc3)sc2c1 | 0.0% | 0.7
CC(C)(C)OC(=O)N1CCC(c2c(C(=O)NC3CCN(Cc4ccccc4)CC3)cnn2-c2ccc(F)cc2F)CC1 | -1.0% | 15
CCCCC12CN3CC(C)(CN(C1)C3c1ccc(O)c(OC)c1)C2=O (stereo not drawn) | -0.5% | -1.1
CCOC(=O)C1CCN(S(=O)(=O)c2cc(-c3cc(C)no3)ccc2C)CC1 | 0.8% | 2.1
CCOC(=O)N1CCC(NC(=O)c2cnn(-c3ccc(C)cc3)c2C2CCN(C(=O)OC(C)(C)C)CC2)CC1 | -0.6% | 0.2
O=c1cc(-c2ccccc2)nc(SCc2nc(-c3ccc(C(F)(F)F)cc3)no2)[nH]1 | 4.3% | -0.3
CCc1ccc(Sc2cc(C(=O)NCCCOC(C)C)c3ccccc3n2)cc1 | -3.4% | 2.2
CCOc1cc(CNCCSc2nnnn2C)ccc1OCc1ccc(Cl)cc1Cl | -0.1% | -1.0
Cc1ccc2c(CN3CCN(C(=O)c4ccc(Br)cc4)CC3)cc(=O)oc2c1 | 2.2% | -0.2
CCOC(=O)c1c(C)n(-c2ccccc2)c2ccc(OC(=O)c3cccc(OC)c3OC)cc12 | 8.8% | -0.6
COc1ccc(NC(=O)Cn2cnc3c(oc4ccccc43)c2=O)cc1OC | -0.6% | -0.6
CC(=O)c1ccc(N2CCN(c3ncnc4c3c(-c3ccccc3)cn4-c3cccc(C)c3)CC2)cc1 | 2.4% | 0.9
CC1=C(C(=O)Nc2ccc(C)cc2C)C(c2ccc[nH]2)n2ncnc2N1 (stereo not drawn) | -5.7% | 1.6
CCN1CCN(Cc2nc3cc(NC(=O)c4ccccc4[N+](=O)[O-])ccc3n2CC)CC1 | 8.3% | -0.3
Cc1cc(N2CCC(C(=O)Nc3ccc(Cl)cc3)CC2)n2nc(C)c(-c3ccc(Cl)cc3)c2n1 | 1.6% | -0.9
Cc1cc(C)cc(-n2nnc(-c3nc(-c4ccc5c(c4)OCO5)no3)c2C)c1 | 1.7% | 0.0
COc1ccc(Br)cc1CNC(=O)CN1C(=O)c2cccnc2Oc2ccc(C)cc21 | 4.0% | -0.1
COc1ccc(Cn2nnc3c(=O)[nH]c(C4CCN(C(=O)c5ccc(C)cc5)CC4)nc32)cc1OC | -1.0% | 1.1
Cc1ccc(-n2nc(C)c3c(C)cc(=O)n(CC(=O)Nc4ccc(Br)cc4F)c32)cc1 | -0.5% | 0.3
COc1ccc2c(c1)cc1c(=O)n(CC(=O)NCCCc3ccccc3)nc(C)n12 | -0.3% | -0.7
Cc1cc(N2CCCCC2)nc2ccc(NC(=O)c3cccc(F)c3)cc12 | 4.9% | 1.5
CCc1ccc(OCCn2c(C3CC(=O)N(Cc4ccc(F)cc4)C3)nc3ccccc32)cc1 (stereo not drawn) | u | 1.0
Cc1ccccc1CNCCCSc1nnnn1C | 1.1% | -0.4
COc1ccc(OC)c(NC(=O)Cn2cnc3ccc(S(=O)(=O)N4CCC(C)CC4)cc3c2=O)c1 | 0.0% | -0.2
COc1cc(NS(=O)(=O)c2cc3[nH]c(=O)[nH]c3cc2C)cc(OC)c1OC | -0.6% | 1.1
COc1ccc(-c2noc(CSc3nc4ccc(C)cc4[nH]3)n2)cc1 | 2.8% | -0.7
COc1cc(Br)c(C2CC(=O)Nc3cc(OC)c(OC)c(OC)c32)cc1OC (stereo not drawn) | 0.8% | 0.1
CN(C)c1ccc(/C=C2\C(=O)/C(=C/c3ccc(N(C)C)cc3)c3ccccc32)cc1 | 0.2% | 0.0
COc1cc(Cl)c(C)cc1NS(=O)(=O)c1c(C)nc2sccn2c1=O | 3.3% | -0.3
Cc1ccc(S(=O)(=O)c2nc(-c3cccs3)oc2N2CCCCC2)cc1 | 0.1% | -0.5
Cc1cc(NC(=O)CN(C)S(=O)(=O)c2ccc3c(c2)CCCC(=O)N3)ccc1Br | 0.1% | 1.8
c1ccc(N=c2nc(-c3ccccc3)n(-c3ccccc3)s2)cc1 | 16µM* | -0.3

In the list so far, 2 contain a CF3 group.
Structure | PINK1 expr mod | TRPML1 ag
COc1ccccc1-n1cc(-c2ccc(C)cc2)nc1S(=O)(=O)CC(=O)Nc1ccccc1C(F)(F)F | 1.3% | 0.1
O=c1cc(-c2ccccc2)nc(SCc2nc(-c3ccc(C(F)(F)F)cc3)no2)[nH]1 | 4.3% | -0.3
